High-throughput results as filed in PubChem BioAssay.
D2 agonist: Beta-Arrestin HTS for Positive Allosteric Modulators of the Human D2 Dopamine Receptor: Agonists | hit rate 0.084% among 360,000 | AID 624465, 2012 | activation, % (concentration not given with the values) | DiscoveRx PathHunter D2 beta-arrestin, luminescence, 90 min; 100% = 57 uM dopamine signal; in the data active = activation above about 40%; inconclusive = about 15% to 40%; inactive = below about 15%; note: compound concentration not given in the record; the text of the record calls up to 30% inactive
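DiscoveRx PathHunter D2 beta-arrestin cells (2,100/well) attached overnight, then compound-stimulated 90 min at 37 C in HBSS/10 mM HEPES/0.1% Tween-20 buffer; beta-galactosidase complementation read by luminescence after 1 h at ambient temperature. Dopamine 57 uM final (EC100) as control.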
gsp agonist: qHTS for Agonist of gsp, the Etiologic Mutation Responsible for Fibrous Dysplasia/McCune-Albright Syndrome: qHTS. AID 624287, 2012. Potency, µM (highest dose often 76.9 µM), without a hit: top-dose activation (cAMP increase), hits mostly activators. gsp mutant cells, cAMP HTRF, 30 min; control for the full effect not named in the record. hit rate 0.13% among 340,000; active = well fitted activation curve with a large enough effect; inconclusive = small, poorly fitted or top-dose-only effect, or another doubt; inactive = no such curve, though single readings can be large or run the other way; cell line not stated here;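 note: phosphodiesterase inhibitor Ro 20-1724 added with compounds to block cAMP breakdown; potency is the fitted concentration of half-maximal effect; nearly all actives have a fitted effect of over 60% in size; about a fifth of the inactives were tested at one dose only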
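Cells stably selected in G418 were plated at 2000/well, grown 16-24 hr, then given compounds in DMSO with the PDE inhibitor […] (300 uM solution added) for 30 min at 37C; cAMP was read by HTRF.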
CtBP-E1A blk: qHTS Assay for Inhibitors of the CtBP/E1A Interaction. activity change, % (test concentration not listed). CtBP / adenovirus E1A interaction (AlphaScreen). AID 651724, 2012. AlphaScreen GST-E1A/His-CtBP binding, 1536-well; active compounds read low; control for the full effect not named in the record. hit rate 0.49% among 340,000; in the data active means activity change below about -65%; inconclusive means about -30% to -65%; inactive means above about -30%; note: % is set by controls: 0 for no effect and ±100 for the full control effect
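In 5 uL wells, 23 nL compound meets equimolar GST-E1A and His-CtBP (5X stock 125 nM each) for 2 h, 37 °C. Beads (5X, 50 ug/mL) then 1 h, 37 °C, dark.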
Six1-Eya2 blk: qHTS Assay for Inhibitors of the Six1/Eya2 Interaction; Homeobox protein SIX1 (Homo sapiens) + Protein phosphatase EYA2 (Homo sapiens), …; AlphaScreen GST-Six1/His-Eya2 binding, biochemical; active compounds read low; control for the full effect not named in the record; activity change, % (no concentration beside the values); hit rate 0.56% among 360,000; in the data active = activity change below about -65%; inconclusive = about -30% to -65%; inactive = above about -30%; note: % is set by controls: 0 for no effect and ±100 for the full control effect
Target sequence (O00167 whole entry, looked up): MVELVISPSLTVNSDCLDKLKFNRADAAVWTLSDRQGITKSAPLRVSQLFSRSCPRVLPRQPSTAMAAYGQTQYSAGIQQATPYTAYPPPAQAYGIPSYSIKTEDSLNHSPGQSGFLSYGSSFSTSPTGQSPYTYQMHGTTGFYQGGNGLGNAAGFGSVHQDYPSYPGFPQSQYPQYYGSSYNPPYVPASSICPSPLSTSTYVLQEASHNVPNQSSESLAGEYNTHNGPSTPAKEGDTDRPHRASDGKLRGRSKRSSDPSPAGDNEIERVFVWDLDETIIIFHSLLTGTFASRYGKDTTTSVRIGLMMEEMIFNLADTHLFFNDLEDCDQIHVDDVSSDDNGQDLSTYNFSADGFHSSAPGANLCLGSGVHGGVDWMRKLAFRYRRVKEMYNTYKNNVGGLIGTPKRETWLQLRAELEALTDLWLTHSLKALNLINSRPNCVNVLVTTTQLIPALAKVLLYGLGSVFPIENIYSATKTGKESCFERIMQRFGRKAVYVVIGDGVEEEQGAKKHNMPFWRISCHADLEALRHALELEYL
Target sequence (Q15475 whole entry, looked up): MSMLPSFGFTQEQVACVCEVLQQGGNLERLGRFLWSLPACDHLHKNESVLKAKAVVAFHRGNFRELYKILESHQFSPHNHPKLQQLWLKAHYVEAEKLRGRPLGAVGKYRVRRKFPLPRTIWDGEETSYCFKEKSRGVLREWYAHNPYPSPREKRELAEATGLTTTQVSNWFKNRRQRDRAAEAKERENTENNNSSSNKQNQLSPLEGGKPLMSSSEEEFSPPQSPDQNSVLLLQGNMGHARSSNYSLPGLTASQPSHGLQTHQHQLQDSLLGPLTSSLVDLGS
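GST-Six1 + His-Eya2 (5X stock: 250/500 nM); Tris pH 8.0, 300 mM NaCl, 0.05% BSA, 0.02% Tween 20; GSH donor/Ni acceptor beads; 1 h 37 °C dark; AlphaScreen readout.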
gsp antagonist: qHTS for Antagonists of gsp, the Etiologic Mutation Responsible for Fibrous Dysplasia/McCune-Albright Syndrome: qHTS. gsp-mutant cells, cAMP HTRF, 30 min; control for the full effect not named in the record. Potency, µM (highest dose often 76.9 µM), inactives show at the highest dose activity change, negative = inhibition, actives largely listed as inhibitors. hit rate 0.4% among 340,000; active = falling curve of any shape with a large fitted effect; inconclusive = falling curve, mostly with a smaller effect; inactive = flat or rising curve; cell line not stated here;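 note: intracellular cAMP measured with PDE inhibitor Ro 20-1724 present during compound exposure; potency is the fitted concentration of half-maximal effect; % is set by controls: 0 for no effect and ±100 for the full control effect; nearly all actives have a fitted effect of over 65% in size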
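Measurement of cellular cAMP by homogeneous time-resolved fluorescence following a 30 min compound exposure at 37C. The PDE inhibitor […] was present throughout; the assay buffer was DPBS with 0.05% BSA and 0.005% Tween 20.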
D2 potentiator: Beta-Arrestin HTS for Positive Allosteric Modulators of the Human D2 Dopamine Receptor: Potentiators. potentiation, % (no concentration beside the values). hit rate 0.23% among 360,000. DiscoveRx D2 beta-arrestin cells, luminescence, 90 min; 100% = 57 uM dopamine signal. D(2) dopamine receptor (Homo sapiens), P14416. AID 624464, 2012; active = potentiation of 50% or more; inconclusive = 30% to 50%; inactive = 30% or less;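 note: compound concentration not given in the record; tested on top of an EC20 dose of dopamine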
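PathHunter D2 cells, attached overnight at 37 deg C, received compound in DMSO plus dopamine at EC20 (50 nM final) for 90 min at 37 deg C. Beta-arrestin recruitment was read as luminescence after 1 h with detection reagent at ambient temperature.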
* = called active by the depositor; ? = inconclusive; / = no result given; [ ] = dose if it differs, or a comment. No enrichment for hits; any-hit rate near 1.4%.

Results follow in this order: D2 agonist | gsp agonist | CtBP-E1A blk | Six1-Eya2 blk | gsp antagonist | D2 potentiator
O=C1N[C@@H](Cc2ccccc2)C(=O)N2[C@H]1C[C@]1(Br)c3ccccc3N(S(=O)(=O)c3ccccc3)[C@H]21
 : -2.7 | ? | -1 | -3 | -6% | -5
COc1ccc(C(c2sc3ncnn3c2O)N2CCN(c3ccccc3F)CC2)cc1OC (stereo not drawn)
 : 2.6 | -41% | -2 | -19 | 1% | -7
O=C1CCCC2=C1C(c1cccs1)n1ncnc1N2 (stereo not drawn)
 : -3.8 | 13% | 7 | 1 | 3% | -3
COc1ccc(-c2[nH]nc3c2C(c2ccncc2)C(C#N)=C(N)O3)cc1 (stereo not drawn)
 : -1.6 | -20% | -7 | -17 | 32%[activator] | 4
O=C(NCc1ccccc1)c1cc(S(=O)(=O)N2CCC3(CC2)OCCO3)ccc1F
 : -1.3 | -20% | 0 | 6 | -4% | -10
Cc1cc2c(cc1C)N(Cc1ccc(Cl)cc1)C1=NCCCN12
 : -8.2 | 9%[15.4 µM] | 6 | 1 | 2% | -11
S=C(Nc1ccccc1Cl)N(CCCN1CCOCC1)Cc1ccco1
 : -0.9 | -4% | 0 | -3 | 9% | -10
CCCCOc1cccc(C2/C(=C(\O)c3ccc4c(c3)OCCO4)C(=O)C(=O)N2CCN2CCOCC2)c1 (stereo not drawn)
 : -1.4 | 16µM* | / | -4 | -3% | 3
Cc1cc(C(=O)COc2ccccc2[N+](=O)[O-])c(C)n1-c1cccc(S(=O)(=O)N2CCOCC2)c1
 : -1.9 | -82%[inhibitor] | -5 | -15 | -9% | -10
C[C@H](CO)N1C[C@H](C)[C@@H](CN(C)S(C)(=O)=O)Oc2ccc(NC(=O)C3CC3)cc2C1=O
 : -4.9 | -28% | 0 | 18 | 13% | 0
CC(OC(=O)c1ccccc1C(=O)N(C)c1ccccc1)C(=O)Nc1ccc(C(N)=O)cc1 (stereo not drawn)
 : -0.4 | 23%[15.4 µM] | 0 | -9 | -7% | -8
Cc1ccc(S(=O)(=O)c2ccc(C)cc2)cc1
 : -1.5 | -40%[inhibitor] | 4 | 9 | -10% | -5
O=C(Nc1ccccc1)N1CCN2C(=O)c3ccccc3C12c1ccccc1 (stereo not drawn)
 : -3.6 | 10% | 2 | -1 | -21% | -19
O=C(CN1CCN(c2cccc(C(F)(F)F)c2)CC1)Nc1cccc(C(F)(F)F)c1
 : -2.4 | -2% | 3 | 6 | -1% | -11
Nn1c(Cc2ccccc2)n[nH]c1=S
 : 4.9 | 10% | 7 | 4 | 1% | -7
C=CCc1cc(Cl)ccc1OCCCNC(C)CC (stereo not drawn)
 : -2.6 | -24% | 0 | 12 | 14% | -27
COc1ccc(NC(=O)CCCCCN2C(=O)c3ccccc3C2=O)c(OC)c1
 : -1.3 | ? | -1 | 0 | -18% | 1
Cc1csc(NC(=O)c2cnccn2)n1
 : -0.7 | ? | -28 | -15 | 5% | -3
Cc1cc(NC(=O)Cn2ccc([N+](=O)[O-])n2)no1
 : 0.1 | 34%[15.4 µM] | -1 | 0 | 9% | 7
CCOC(=O)c1ccc(NC(=O)N2CCc3ccccc3C2)cc1
 : -0.3 | -4% | -8 | -6 | -20% | -35
O=C(O)c1ccc(OS(=O)(=O)c2ccc(Cl)s2)cc1
 : -3.1 | -5%[15.4 µM] | 6 | 3 | 0% | 1
CC1C(=O)N(Cc2cn(CC3CCCCC3)nn2)CCS(=O)(=O)N1Cc1ccc(-c2ccncc2)cc1 (stereo not drawn)
 : -3.1 | -55%[inhibitor] | 11 | -17 | / | -11
O=C1c2oc3ccccc3c(=O)c2C(c2cccc(F)c2)N1CCCO (stereo not drawn)
 : 1.4 | -2% | 5 | 13 | -8% | -9
CCCCn1c(N)c(N(Cc2ccccc2OC)C(=O)C(C)Oc2ccc(Cl)cc2)c(=O)[nH]c1=O (stereo not drawn)
 : -3.0 | -7%[15.4 µM] | -9 | 8 | -17% | -29
COc1ccc(/C=C/c2nc(-c3ccccc3)cc(=O)[nH]2)cc1
 : 2.0 | -3% | -3 | 3 | -10% | 12
Cn1c(=O)c2c(ncn2CC(=O)Nc2nccs2)n(C)c1=O
 : -0.5 | 13%[15.4 µM] | -2 | 5 | 15% | -3
CC(C)NC(=O)c1cnn2c1NC(c1cccs1)CC2C(F)(F)F (stereo not drawn)
 : -3.0 | -1% | -6 | -7 | 7% | -9
O=C(NCC1CCCO1)c1cc(-c2ccc(Cl)cc2Cl)on1 (stereo not drawn)
 : -0.6 | -22% | 3 | 4 | 4% | -7
CC(=O)Nc1ccccc1NC(=O)COc1cccc2ccccc12
 : -2.6 | 4% | 4 | 2 | 0% | -17
COC(=O)COc1ccc(-c2nccc(-c3ccccn3)n2)cc1
 : -2.2 | -31%[inhibitor] | 8 | 2 | -3% | 1
Cc1cccc(COc2ccc(/C=N/NC(=O)c3nnn(-c4nonc4N)c3COc3ccc(F)cc3)cc2)c1
 : -1.1 | ? | 11 | 1 | 0% | 3
CC(C)c1ccc(S(=O)(=O)N2CCN(C(=O)CCNC(=O)Nc3ccccc3)CC2)cc1
 : -0.1 | -13% | -1 | 0 | -20% | 0
CCCc1nc2oc3c(Cl)ncnc3c2c2c1CCCC2
 : -4.3 | 5%[15.4 µM] | 2 | 4 | 10% | -8
Cc1nn(C(C)C(=O)NCC2CCCO2)c(C)c1[N+](=O)[O-] (stereo not drawn)
 : -3.1 | 0% | -1 | 1 | 3% | -6
Cc1ccccc1N1CC(=O)Nc2c(oc3nc(-c4ccccc4)cc(C)c23)C1=O
 : -3.8 | ? | / | 17 | -18% | -12
Cc1cccnc1NC(=O)CNC(=O)C12CC3CC(CC(Cl)(C3)C1)C2
 : -6.0 | 7%[15.4 µM] | 13 | 0 | 4% | -7
N#C/C(=C\c1ccc(OCCN2CCOCC2)cc1)C(=O)Nc1ccccc1F
 : -3.3 | -18%[15.4 µM] | -4 | 5 | 2% | -7
Cc1ccc(S(=O)(=O)N(C)C)cc1NC(=O)CSc1nc2ccccc2[nH]1
 : 0.8 | 15% | 4 | -3 | -3% | -35
CCCCNCc1cc(Br)c(OCc2cccs2)c(OC)c1
 : -2.4 | 15% | 7 | 10 | 4% | -16
O=C1CCCN1c1cc(Cl)ccc1Cl
 : 2.6 | -1% | 4 | 1 | 6% | -5
O=C(c1ccccn1)c1conc1C(=O)c1ccc(Br)cc1
 : 3.5 | -23% | 4 | 8 | 1% | 1
CCCNC(=S)Nc1ccc2nc(-c3ccccn3)c(-c3ccccn3)nc2c1
 : -3.3 | -2% | -4 | -4 | 7% | -29
O=C(Nc1ccc2oc(-c3cccc4ccccc34)nc2c1)c1ncn[nH]1
 : -2.0 | 10% | -27 | -14 | -10% | 12
COc1cc2cnc(Cl)nc2cc1OC
 : 4.7 | ? | 12 | -1 | 14% | 4
C[C@@H]1CN([C@H](C)CO)C(=O)CCCn2cc(nn2)CO[C@H]1CN(C)S(C)(=O)=O
 : 6.3 | -61%[inhibitor] | -15 | 11 | / | -4

As entered above.
CC(C)c1ccc(S(=O)(=O)N2CCN(C(=O)CCNC(=O)Nc3ccccc3)CC2)cc1 – D2 potentiator = 0
COc1cc2cnc(Cl)nc2cc1OC – D2 potentiator = 4
O=C(c1ccccn1)c1conc1C(=O)c1ccc(Br)cc1 – gsp antagonist = 1%
CCCc1nc2oc3c(Cl)ncnc3c2c2c1CCCC2 – Six1-Eya2 blk = 4

(list continues)
Compound,D2 agonist,gsp agonist,CtBP-E1A blk,Six1-Eya2 blk,gsp antagonist,D2 potentiator
CCN(CC(=O)NCCCN1CCOCC1)S(=O)(=O)c1cc(Cl)ccc1Cl,-2.5,-8%[15.4 µM],-24,5,19%,-30
O=C(C[C@H]1C[C@H](C(=O)N2CCCCC2)[C@@]2(CCc3ccccc3)c3[nH]c4ccc(Cl)cc4c3CCN2C1=O)NCc1cccc(C(F)(F)F)c1,2.2,/,7,-1,5%,/
CC(=O)C1=C(C)N(c2ccccc2)C(=O)C1(NS(=O)(=O)c1ccc(N)cc1)C(F)(F)F (stereo not drawn),-4.8,-8%[15.4 µM],-6,1,5%,2
O=Nc1c2cc(-c3ccccc3)[nH]nc-2c2ccccc12,-2.4,20%,/,-1,-7%,-9
O=C(CN(Cc1ccccc1)C(=O)CNS(=O)(=O)c1ccc(F)cc1)NCc1ccco1,0.8,-2%[15.4 µM],2,2,-4%,-8
O=C(CN(Cc1cccs1)C(=O)CCC(=O)Nc1ccccn1)NCc1ccccc1,-1.6,-14%[15.4 µM],-2,-1,4%,-15
Cn1c(=O)c2c(ncn2CC(=O)N/N=C/c2cn[nH]c2-c2ccc(F)cc2)n(C)c1=O,-7.8,54%[15.4 µM],-11,-17,-4%,-3
Cn1c(=O)[nH]c(=O)c2c1nc(N1CCOCC1)n2CC(=O)c1ccccc1,4.8,-3%[15.4 µM],3,5,3%,-3
COCCNC(=S)N(C)[C@H]1C[C@H]2c3cc(Oc4ccccc4C)ccc3CCN2C(=O)[C@H]1[C@H](C)O,-11,-41%[inhibitor],-19,-7,/,-2
O=C(Nc1ccc(N2CCOCC2)cc1)C1CC(O)CN1S(=O)(=O)c1ccc(Cl)cc1 (stereo not drawn),1.2,-25%,-15,0,7%,-13
COc1ccccc1-n1c(-c2ccc(F)cc2)coc1=O,4.9,-5%[15.4 µM],3,-8,3%,-1
Cc1ccc2cc3cc(C(=O)NCCN4CCOCC4)oc3nc2c1,-1.0,-1%,-11,-6,11%,-7
COC(=O)c1ccccc1NC(=O)COC(C)=O,-1.4,12%,-3,-2,-7%[15.4 µM],-5
c1ccc(N/N=C(\Cc2nc3ccccc3[nH]2)c2ccccc2)cc1,-3.0,-39%,-13,-11,-25%,5

A second format for part of the listing above.
COCCNC(=S)N(C)[C@H]1C[C@H]2c3cc(Oc4ccccc4C)ccc3CCN2C(=O)[C@H]1[C@H](C)O
  D2 agonist = -11
  gsp agonist = -41%[inhibitor]
  CtBP-E1A blk = -19
  Six1-Eya2 blk = -7
  gsp antagonist = /
  D2 potentiator = -2
O=C(Nc1ccc(N2CCOCC2)cc1)C1CC(O)CN1S(=O)(=O)c1ccc(Cl)cc1 (stereo not drawn)
  D2 agonist = 1.2
  gsp agonist = -25%
  CtBP-E1A blk = -15
  Six1-Eya2 blk = 0
  gsp antagonist = 7%
  D2 potentiator = -13
